# Source: PubChem (National Center for Advancing Translational Sciences (NCATS))
# HTT ATP protect: protects HTT-Q103 PC12 cells, measured by ATP; AID 1471; PC12 HTT-Q103 induced, cytoprotection, ATP luminescence, 40 h; 230,000 tested, 0.14% active; Potency, µM (highest dose often 56.4 µM), without a hit: cytoprotection (ATP increase), hits mostly activators;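 further: % of control where 0% means no effect; nearly all actives have a fitted effect of over 45% in size; toxic huntingtin expression switched on by the ecdysone agonist tebufenozide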
#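 Rat PC12, Q103 Htt exon1-GFP fusion, ecdysone promoter; tebufenozide inducer 100 nM final; compound titration; qHTS, 1500 cells/well; ATPlite luminescent read.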
# SMN2 splice enh: increases expression of the SMN2 splice variant | HEK293 SMN2-luciferase splicing reporter, luminescence, 30-36 h | 210,000 tested, 2.8% active | Potency, µM (doses to about 46.1 µM), inactives show at the highest dose activity change, positive = activation, actives largely listed as activators | AID 1458; further: % of control where 0% means no effect; nearly all actives have a fitted effect of over 55% in size
#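 HEK293 cells carry an SMN2 […]–luciferase reporter in which exon 7 inclusion puts luciferase in frame. Cells were plated 10-12 h before compound addition, then incubated 30-36 h at 37C. ONE-Glo luminescence was read; sodium butyrate at 4.5 mM final served as control.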
# Tau fibril FP: tau fibrillization inhibition (FP). P10636. K18 P301L tau heparin fibrillization, Alexa594 FP, 6 h. Potency, µM (top dose mostly 57.7 µM), inactives show top-dose activity, negative = inhibition, actives largely listed as inhibitors. 280,000 tested, 0.39% active; further: on the % scale 0 is the no-effect control and ±100 the full control effect; nearly all actives have a fitted effect of over 55% in size
# Target sequence (P10636 561-689 P618L limits assumed): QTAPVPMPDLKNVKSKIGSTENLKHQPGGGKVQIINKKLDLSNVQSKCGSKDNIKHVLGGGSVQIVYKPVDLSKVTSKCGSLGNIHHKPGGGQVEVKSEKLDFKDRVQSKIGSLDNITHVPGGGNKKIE
#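 Heparin (20 uM) drove fibril formation of recombinant tau K18 P301L, 15 uM unlabeled with 0.24 uM Alexa 594 label, for 6 hr at 37 C in 100 mM sodium acetate pH 7. Fluorescence polarization (555/632 nm) read 1 hr after 30 uM ThT.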
# JMJD2E inh: JMJD2E (human) inhibition; B2RXH2; JMJD2E catalytic domain, FDH-coupled NADH fluorescence (FDH is formaldehyde dehydrogenase); Potency, µM (series often up to 57.1 µM), without a hit: top-dose activity change, negative = inhibition, most hits filed as inhibitors; 230,000 tested, 1.6% active; active means well fitted inhibition curve with a large enough effect, not every such curve was filed as active; inconclusive means small, poorly fitted or top-dose-only effect, or another doubt; inactive means no such curve, though single readings can be large or run the other way;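 further: 0% = wells with enzyme and -100% = buffer wells without enzyme; nearly all actives have a fitted effect of over 50% in size; many of its hits are not listed in these tables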
# Target sequence (B2RXH2 1-337 limits assumed): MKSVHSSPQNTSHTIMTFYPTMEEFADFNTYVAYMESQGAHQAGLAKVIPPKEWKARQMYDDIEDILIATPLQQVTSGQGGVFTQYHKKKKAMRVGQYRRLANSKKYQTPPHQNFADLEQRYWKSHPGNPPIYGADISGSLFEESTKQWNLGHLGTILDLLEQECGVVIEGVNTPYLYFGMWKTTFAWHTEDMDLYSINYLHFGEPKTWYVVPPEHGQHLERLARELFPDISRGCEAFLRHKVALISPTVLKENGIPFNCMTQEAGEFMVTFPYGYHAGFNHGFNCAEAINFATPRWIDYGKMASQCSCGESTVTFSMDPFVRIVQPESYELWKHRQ
# Tau fluor counter: counter-screen for tau fibril formation inhibitors; tau K18 P301L Alexa594 fluorescence, heparin fibrillization; Potency, µM (highest dose often 57.7 µM), for the others: at the highest dose activity change, negative = decrease; 280,000 tested, 0.93% active; AID 1463; further: on the % scale 0 is the no-effect control and ±100 the full control effect; nearly all actives have a fitted effect of over 55% in size
#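 Human K18 P301L tau (15 uM unlabeled plus 0.24 uM Alexa 594-labeled, final) in 100 mM sodium acetate pH 7 was mixed with compound and 20 uM heparin and incubated 6 hr at 37 C.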
# HTT aggregate: inhibitors of mutant huntingtin aggregate formation in PC12 cells | AID 1688 | Potency, µM (doses to about 46.1 µM), for inactives: at the top dose activity change, negative = inhibition, hits mostly inhibitors | PC12 HttQ103-GFP aggregates, Acumen cytometry, 40 h | 220,000 tested, 1.1% active; further: on the % scale 0 is the no-effect control and ±100 the full control effect; nearly all actives have a fitted effect of over 60% in size
#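 PC12 cells stably carrying ecdysone-inducible HTT exon 1 Q103–GFP were induced with tebufenozide (100 nM final) and treated with library compounds in titration. GFP aggregates in lysates were counted by laser scanning cytometry.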
# Tau ThT inhib: tau fibrillization inhibition (ThT binding); P10636; recombinant tau K18 P301L (four-repeat tau fragment), heparin-induced fibrillization, ThT fluorescence; Potency, µM (highest dose often 57.4 µM), inactives show at the top dose activity, negative = inhibition, actives largely listed as inhibitors; 270,000 tested, 2.1% active; further: on the % scale 0 is the no-effect control and ±100 the full control effect; nearly all actives have a fitted effect of over 55% in size
#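 Aggregation was driven by heparin (20 uM final) acting on recombinant tau […] bearing P301L in 100 mM sodium acetate pH 7; fibrils were detected with Thioflavin T.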
# Starred values were filed as active, the others as inactive; ? = inconclusive; . = no result given; & = joins results of further samples; [ ] = dose if it differs, or a comment. Unless noted, the call rests on the fitted dose curve; in most records, active means well fitted curve in the direction sought with a large enough effect; inconclusive means small, poorly fitted or top-dose-only effect, or another doubt; inactive means no such curve, though single readings can be large; an effect the other way counts as inactive or inconclusive. Potency means the concentration at half of the fitted maximal effect. An excerpt; the hit share may differ from the screen's.
SMILES,HTT ATP protect,SMN2 splice enh,Tau fibril FP,JMJD2E inh,Tau fluor counter,HTT aggregate,Tau ThT inhib
Cc1ccc(-c2ccc(S(=O)(=O)N3CCCC3)cc2)cc1,.,5%,-3%,4%,3%,-2%,3%
COC(=O)c1ccc(CN2CCN(Cc3ccccc3)C(CCO)C2)cc1 (configuration not stated),21%[10 µM],.,3%,0%,3%,-9%[9.22 µM],-2%
COc1ccc(C(=O)OCc2csc(C)n2)c(O)c1,-17%,2%,16%,-10%,0%,12%,-11%
CCN(C(=O)C1CCN(S(=O)(=O)c2cccc3nonc23)CC1)c1ccccc1,-2%,15%,8%,6%,-12%,25%,-9%
CCOC(=O)Cc1csc(NC(=O)CSc2nnnn2-c2ccc(F)cc2)n1,-10%[10 µM],13%,7%,1%,0%,-4%,4%
COc1ccc(Oc2coc3cc(OC(=O)N4CCOCC4)ccc3c2=O)cc1,-10%,-48%[inhibitor],-2%,-1%,0%,-27%,-2%
COc1cccc(-c2nc3ccc(O)cc3c(=O)o2)c1,-12%,-10%,-1%,1%,-25%,20%,?
CCC(C)(C)n1nnnc1C(c1ccccn1)N1CCN(c2cccc(OC)c2)CC1 (configuration not stated),-2%[1.9 µM],-16%,-7%,-4%,-12%,-2%,-11%
Cc1onc(-c2c(F)cccc2Cl)c1C(N)=S,1%[10 µM],-12%,7%,7%,12%,-5%,3%
CC1(C)C(=O)Nc2ccccc2N1C(=O)CSc1nnc2c(Cl)cc(Cl)cn12,3%[0.074 µM],-4%,-2%,-13%,3%,1%,-4%
COc1ccc(C2Nc3ccccc3C(=O)N2Cc2ccco2)cc1COc1ccc([N+](=O)[O-])cc1 (configuration not stated),-17%,-18%,-3%,-10%,?,11%,-4%
COC(=O)Nc1nc(Sc2ncc(C(F)(F)F)cc2Cl)n[nH]1,.,-3%,3%,4%,1%,16%,-6%
CSc1ncc(CN2CCc3c([nH]c4ccccc34)C2c2cccc(O)c2)cn1 (configuration not stated),.,.,2%,?,16µM*[quencher],?,-18%
Cc1ccc(NC(=O)c2ccc(F)cc2)nc1,4%[10 µM],.,3%[2.34 µM],?,6%[2.34 µM],-6%[9.22 µM],-14%
CN(Cc1ccco1)C(=O)c1ccc(N2CCCC2=O)cc1,14%,13%,1%,4%,1%,-5%,-10%
CCN(CCCNC(=O)CC1Oc2ccc(C)cc2NC1=O)Cc1ccccc1 (configuration not stated),-7%,-3%,-2%,3%,-1%,?,4%
O=C(C[n+]1cccc(/C=N/O)c1)N1CCCc2ccccc21,-31%,-33%[inhibitor],4%,2%,0%,-13%,-2%
Cc1ccc(Sc2nc3ccc(C)cn3c(=O)c2/C=N/O)cc1,-9%,-3%,-13%,?,-1%,-25%,-8%
CCCC(=O)Nc1ccc(C(=O)Nc2nc(CC(=O)OCC)cs2)cc1,-23%,-3%,-6%,-5%,-19%,5%,?
CCc1nnc(NC(=O)CCc2c[nH]c3ccccc23)s1,-15%,13%,1%,-4%,-23%,-11%,-6%
COc1ccc(N2CC(=O)N(c3ccccc3)C2=S)cc1,0%[10 µM],23%,1%,12%,-10%,-11%,-9%
Cc1cccc(CN2CCN(Cc3ccc(-n4cccn4)cc3)CC2CCO)n1 (configuration not stated),16%[10 µM],.,0%,-1%,4%,1%[9.22 µM],-6%
C[C@@](N)(C(=O)O)c1ccc(C(=O)O)cc1,?,-15%,6%&3%&4%,3%&-9%,4%&1%&-8%,.,4%&4%&-5%
Cc1ccc(C(=O)Nc2cccnc2)cc1S(=O)(=O)N1CCCCC1,-19%,-7%,-4%,-7%,-4%,-7%,1%
COc1cc(C(C)=O)ccc1OCC(O)CNCC1(N2CCCCC2)CCCCC1 (configuration not stated),-25%,10%,-6%,26%,-3%,-2%,-12%
Cc1nc(-c2nc(C(=O)NNS(C)(=O)=O)cs2)cs1,0%[10 µM],.,8%,9%,3%,-3%[9.22 µM],-8%
CC(=O)c1ccc(OC(=O)N(c2ccccc2)c2ccccc2)cc1,2%,8%,-5%,5%,-21%,8%,-21%
COc1ccc(N(C(=O)c2cccc(OC)c2OC)C2C=CS(=O)(=O)C2)cc1 (configuration not stated),-6%,-27%,0%,4%,-5%,?,-10%
COc1ccc(/C=C2/C(=O)OCc3cc(OC)c(OC)cc32)c(OC)c1,38%[10 µM],11%,-1%,-1%,-1%,?,-10%
COc1cccc(OCCCN2CCN(S(=O)(=O)c3ccc(NC(C)=O)cc3)CC2)c1,-9%[10 µM],-47%[inhibitor],-24%,1%,?,-8%[9.22 µM],5%
CCOC(=O)c1ccc2nc(C)cc(Nc3cccc(C(=O)O)c3)c2c1,.,5%&1%,-5%&5%,-2%,-12%&-8%,6%,-2%&-6%
COCCCNC(=S)N/N=C/c1cccc(OC)c1O,-36%[10 µM],.,11%,?,-5%,-7%[9.22 µM],-13%
CCc1c(C(=O)OCc2ccccc2)[nH]c(C)c1C,-1%[10 µM],.,12%,-26%,-21%,-6%[9.22 µM],-13%
COC(=O)C1=C(N)Oc2cc(C)[nH]c(=O)c2C1c1cc(OC)c(OC)c(OC)c1 (configuration not stated),10%,20%,-4%,3%,-5%,2%,-6%
Cn1c(NCc2c[nH]c3ccccc23)nc2ccccc21,-17%,11µM*,4%,5%,-8%,-17%,-2%
O=C(NCCOC(=O)c1ccc(S(=O)(=O)N2CCOCC2)cc1)c1cccnc1,0%,28%,8%,4%,0%,8%,-6%
COc1cc(NC(=O)c2ccc3c(c2)OCO3)ccc1NC(=O)C(C)C,-45%[inhibitor],-19%,2%,2%,-10%,16%,-13%
CCOC(=O)/C=C/C(=O)Nc1ccccc1-c1ccccc1NC(=O)/C=C/C(=O)OCC,-10%[10 µM],-24%,?,-2%,-11%,25%,20µM*
FC(F)(F)c1cc(Cl)c2nc(-c3ccccc3)cn2c1,-99%[inhibitor],14µM*,-1%,-20%,-21%,-13%,?
c1ccc2c(c1)COC(CN1CCCCC1)OC2,2%[10 µM],.,-13%,0%,-7%,7%[9.22 µM],-4%

# Full records, quoted from the list. Screens in order: HTT ATP protect | SMN2 splice enh | Tau fibril FP | JMJD2E inh | Tau fluor counter | HTT aggregate | Tau ThT inhib
# COc1ccc(C(=O)OCc2csc(C)n2)c(O)c1 as listed: -17% | 2% | 16% | -10% | 0% | 12% | -11%
# CCN(CCCNC(=O)CC1Oc2ccc(C)cc2NC1=O)Cc1ccccc1 (configuration not stated) as listed: -7% | -3% | -2% | 3% | -1% | ? | 4%

# Continued.
SMILES,HTT ATP protect,SMN2 splice enh,Tau fibril FP,JMJD2E inh,Tau fluor counter,HTT aggregate,Tau ThT inhib
Cn1ncc(C#N)c1NC(=O)C1CC(c2c(F)cccc2Cl)=NO1 (configuration not stated),-6%[0.074 µM],14%,7%,8%,4%,-13%,-6%
Cc1c(NC(=O)CN2C(=O)C(=O)c3ccccc32)c(=O)n(-c2ccccc2)n1C,13%[10 µM],.,-3%,-14%,-10%,6%[9.22 µM],-14%
CCOc1ccc(NC(=S)NN2C(C)CCCC2C)cc1 (configuration not stated),23%[10 µM],0%,-3%,7%,2%,-8%,1%
O=C(CSc1nc2ccccc2s1)Nc1ccc(N2CCOCC2)c(Cl)c1,16%[10 µM],-7%,11%,-5%,?,3%,?
COc1ccc(C(C)NC(=O)Cc2ccc(Br)cc2)cc1 (configuration not stated),-7%[10 µM],-28%,1%,3%,-4%,-7%,6%
Cc1ccc(NC(=O)NCc2ccccn2)cc1,-1%[10 µM],-3%,1%,-4%,-8%,-6%[9.22 µM],-5%
CCn1c(C(=O)N2CCC(C(=O)NCc3ccc4c(c3)OCO4)CC2)cc2sccc21,-10%,-26%,1%,5%,-14%,3%,-8%
CCC1(CC)NC(=S)N(Nc2ccccc2)C1=O,-16%,6%,3%,3%,-8%,8%,-8%
CN(Cc1ccccc1)c1ccc(C(=O)O)cc1[N+](=O)[O-],?,-11%,-5%,-5%,-5%,-27%,-16%
COC(=O)C(CSCc1ccccc1)NC(=O)CSc1nc(C)cc(=O)[nH]1 (configuration not stated),-15%,.,0%,2%,-17%,10%,?
CCCCC(CC(O)COCC(C)C)C(=O)NN (configuration not stated),23%[10 µM],-1%,5%,2%,9%,3%[9.22 µM],6%
CCOc1ccc(OCc2ccc(C(=O)Nc3cccc(C)n3)o2)cc1,2%[10 µM],?,5%,?,-21%,6%,?
CC1CCN(C(=O)C(Cc2ccccc2)n2cccc2)CC1 (configuration not stated),-11%[10 µM],-22%,0%,-4%,-2%,-11%,-7%
NS(=O)(=O)c1ccc(N/C=C\C(=O)c2ccc(F)cc2)cc1,-48%[inhibitor],13µM*,3%,?,-4%,12%,-2%
CCCn1c(N)c(NCCN2CCOCC2)c(=O)[nH]c1=O,6%[10 µM],3%,10%,?,0%,-4%,-2%
CCOc1ccccc1N1CCN(C(=O)/C=C/c2cccc([N+](=O)[O-])c2)CC1,21%[10 µM],-1%,13%,2%,-9%,-10%,-6%
CN(c1ccccc1)C(c1ccc(F)cc1)c1nnnn1C1CCCC1 (configuration not stated),8%[10 µM],-26%,7%,1%,-9%,-17%,-4%
O=C(N/N=C/c1ccc(Cl)c([N+](=O)[O-])c1)c1ccc2nc[nH]c2c1,-11%,-6%,1%,-1%,?,-12%,?
CC1CN(S(=O)(=O)N2CCOCC2)CCN1S(=O)(=O)N1CCOCC1 (configuration not stated),.,15%,1%,2%,-6%,12%,-1%
Cc1cccc(-n2cc(-c3ccccc3)c3c(NN4CCOCC4)ncnc32)c1,-9%[10 µM],-19%,-11%,8%,4%,-12%,-3%
CC1CC(C)CN(C(=O)CSc2ccsc2[N+](=O)[O-])C1 (configuration not stated),?,-30%,1%,-2%,-10%,-3%,-13%
Cc1ccc2nc(NC(=O)C3CCCN(S(=O)(=O)c4cnc[nH]4)C3)sc2c1 (configuration not stated),19%[10 µM],?,3%,-5%,0%,25%,4%
Clc1ccc(CSc2nnc(-c3cccnc3)o2)cc1,-1%,-14%,-4%,-2%,-7%,-10%,-2%
Cc1cccn2c(=O)c3cc(C(=O)NCCCN4CCOCC4)n(C)c3nc12,7%[10 µM],22%,-5%,-6%,4%,3%,6%
CCC(C)NC(=O)CSc1nnc(-c2ccc(Cl)cc2)n1N (configuration not stated),-5%,-8%,12%,-5%,7%,-2%,2%
COc1ccc(S(=O)(=O)NCCSC(C)(C)C)cc1,15%,-40%[inhibitor],0%,-3%,-2%,-17%,3%
OC1CCN(c2ncnc3nc[nH]c23)CC1,19%[10 µM],-5%,7%,5%,2%,?,0%
N=C(N)N=Nc1c(O)[nH]c2ccc(Br)cc12,3%,11%,-2%,-22%,-9%,?,?
